# Yeast UUG start: modulators of start codon recognition fidelity in yeast; S. cerevisiae UUG-firefly luciferase reporter, luminescence/redox ratio; activity score, % at 18.7 µM; hit rate 0.13% among 350,000; AID 602363;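 active = replicate mean at a twofold rise or more, about +100% in these data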;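 also: firefly luciferase made from a UUG start codon reports start codon fidelity; reporter light over untreated wells divided by growth signal over untreated wells; some hits fall short of that in this replicate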
# Env fusion inh: HIV envelope-mediated fusion inhibition; hit rate 1.1% among 360,000; AID 651610; inhibition, % at 12.3 µM; HeLa-JRFL Env/CEM21 cell fusion, luciferase;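 active = mean replicate inhibition score of at least 50 and every replicate individually at or above 50; inconclusive = only one of the two criteria met; inactive = mean below 50 and not all replicates reaching 50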;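 also: 0% = plate neutral controls and 100% = maraviroc near 300 nM; one replicate is shown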
# The depositor's hits bear a star; ? = inconclusive; [ ] = dose if it differs, or a comment. An excerpt; the hit share may differ from the screen's.
# Results follow in this order: Yeast UUG start | Env fusion inh
COCC(=O)Nc1ccc2c(c1)[C@@H]1C[C@@H](CC(=O)NCc3ccccn3)O[C@@H](CO)[C@@H]1O2
→ -12.8 | -9.9[16.7 µM]
CN(C)C(=O)c1ccc(-c2ccc([C@@H]3[C@@H](C#N)N(C(=O)C4CCCC4)[C@H]3CO)cc2)cc1
→ -10.6 | -4.9[16.7 µM]
C[C@@H]1CN([C@H](C)CO)C(=O)c2cc(-c3ccccc3F)cnc2O[C@H]1CN(C)Cc1ccccc1
→ 0.4 | 2.9[16.7 µM]
O=C(N[C@H]1CC[C@@H](CCNC(=O)C2CC2)O[C@H]1CO)c1ccncc1
→ -12.6 | -32.5[16.7 µM]
O=C(C[C@@H]1C=C[C@H](NC(=O)c2ccccc2)[C@H](CO)O1)NCCc1ccncc1
→ -2.3 | 8.7[16.7 µM]
C/C=C/c1cnc2c(c1)C(=O)N([C@H](C)CO)C[C@@H](C)[C@H](CN(C)C(=O)Cc1ccccc1)O2
→ 9.9 | -12.5[16.7 µM]
C[C@@H]1CCCCO[C@@H](CN(C)S(=O)(=O)c2cccs2)[C@@H](C)CN([C@@H](C)CO)C(=O)c2cc(NS(=O)(=O)c3cccs3)ccc2O1
→ -17.3 | -32.7[16.7 µM]
CN(C)CCCNC(=O)C[C@H]1C=C[C@H](NC(=O)c2ccccc2F)[C@@H](CO)O1
→ 5.9 | 10.8[16.7 µM]
Cc1noc(C)c1NC(=O)N[C@@H]1CC[C@H](CC(=O)Nc2ccc(-c3ccccc3)cc2)O[C@@H]1CO
→ 23.7 | 13.6[16.7 µM]
CN1CCN(C(=O)C[C@@H]2CC[C@@H]3[C@H](COC[C@H](O)CN3C(=O)c3ccccc3F)O2)CC1
→ -10.2 | -10.9[16.7 µM]
CC(C)NC(=O)Nc1ccc2c(c1)C(=O)N([C@H](C)CO)C[C@H](C)[C@@H](CN(C)Cc1ccc(Cl)c(Cl)c1)OCCCC[C@H](C)O2
→ 2.3 | 23.0[16.7 µM]
COc1ccc(S(=O)(=O)Nc2ccc3c(c2)CC(=O)N([C@@H](C)CO)C[C@H](C)[C@H](CN(C)S(=O)(=O)c2ccccc2)O3)cc1
→ -4.2 | 66.0*[16.7 µM]
C[C@H]1CN([C@@H](C)CO)C(=O)c2cc(C3=CCCCC3)cnc2O[C@H]1CN(C)C(=O)Cc1ccccc1
→ 17.0 | 12.8[16.7 µM]
CCCC(=O)Nc1ccc2c(c1)C(=O)N(C)C[C@H](OC)[C@H](C)CN(Cc1ccccc1)[C@@H](C)CO2
→ 2.2 | -25.8[16.7 µM]
CC(=O)N(C)C[C@@H]1Oc2ncc(-c3ccc(C)cc3)cc2C(=O)N([C@H](C)CO)C[C@H]1C
→ -11.5 | 0.8[16.7 µM]
O=C(C[C@@H]1CC[C@@H](NC(=O)C2CCC2)[C@@H](CO)O1)NC1CCCCC1
→ -6.7 | -1.4[16.7 µM]
COc1ccc(CCN2C(=O)[C@@]3(Cc4ccccc42)c2ccccc2C(=O)N(Cc2ccccc2C(F)(F)F)[C@H]3c2ccc(CO)cc2)cc1
→ 152.6* | -6.2[16.7 µM]
CCC(=O)Nc1ccc2c(c1)C(=O)N(C)C[C@@H](OC)[C@@H](C)CN(CCC(F)(F)F)[C@H](C)CO2
→ -6.1 | 6.3[16.7 µM]
Cc1ccc(S(=O)(=O)N(C)C[C@H]2OCCCC[C@H](C)Oc3ccc(NC(=O)NC(C)C)cc3C(=O)N([C@H](C)CO)C[C@@H]2C)cc1
→ 13.2 | -18.0[16.7 µM]
C[C@@H]1CN([C@H](C)CO)C(=O)c2cccc(N(C)C)c2O[C@H]1CN(C)Cc1ccc(Oc2ccccc2)cc1
→ 6.9 | 13.4[16.7 µM]
COc1ccc(CN(C)C[C@H]2Oc3ccc(NS(C)(=O)=O)cc3CC(=O)N([C@@H](C)CO)C[C@H]2C)cc1
→ -3.8 | -43.2[16.7 µM]
C[C@@H]1CCCCO[C@H](CN(C)S(=O)(=O)c2cn(C)cn2)[C@@H](C)CN([C@@H](C)CO)C(=O)c2cc(NC(=O)Nc3ccc(C(F)(F)F)cc3)ccc2O1
→ -10.1 | -9.7[16.7 µM]
C[C@@H]1CCCCO[C@@H](CN(C)Cc2ccc(C(=O)O)cc2)[C@@H](C)CN([C@H](C)CO)C(=O)c2cc(NS(=O)(=O)c3cn(C)cn3)ccc2O1
→ 2.4 | -9.5[16.7 µM]
C[C@@H]1CN([C@H](C)CO)C(=O)Cc2cc(NC(=O)Cc3ccccc3)ccc2O[C@@H]1CN(C)CC1CCCCC1
→ 9.3 | -59.4[16.7 µM]
C[C@@H]1CCCCO[C@@H](CN(C)C(=O)Nc2ccc(C(F)(F)F)cc2)[C@H](C)CN([C@H](C)CO)C(=O)c2cc(NS(C)(=O)=O)ccc2O1
→ -1.0 | -138.7[16.7 µM]
COc1ccc(S(=O)(=O)Nc2ccc3c(c2)CC(=O)N([C@H](C)CO)C[C@H](C)[C@H](CN(C)Cc2ccc(C(=O)O)cc2)O3)cc1
→ -18.7 | 0.7[16.7 µM]
C[C@@H]1CN([C@H](C)CO)C(=O)c2cccc(NC(=O)Nc3cccc4ccccc34)c2O[C@@H]1CN(C)C(=O)Nc1cccc2ccccc12
→ 3.8 | -85.0[16.7 µM]
CNC[C@H]1Oc2ccc(NC(=O)CCCN(C)C)cc2CC(=O)N([C@H](C)CO)C[C@@H]1C
→ 1.5 | 1.7[16.7 µM]
CN(C)C(=O)C[C@H]1CC[C@@H]2[C@H](COC[C@@H](O)CN2C(=O)c2ccncc2)O1
→ 5.7 | 12.2[16.7 µM]
COc1ccc2oc(N)nc2c1
→ -4.7 | -3.0

# Results follow in this order: Yeast UUG start | Env fusion inh
C[C@@H]1CN([C@H](C)CO)S(=O)(=O)c2ccc(-c3cccnc3)cc2O[C@@H]1CN(C)C(=O)NC1CCCC1
→ 2.2 | 9.7[16.7 µM]
CN1C(=O)c2cc(NC(=O)c3ccc(F)cc3)ccc2OC[C@@H]2O[C@H](CC(=O)N3CCOCC3)CC[C@H]21
→ 6.6 | 1.3[16.7 µM]
Cc1noc(C)c1NC(=O)N(C)C[C@H]1OCCCC[C@H](C)Oc2ccc(NS(=O)(=O)c3cccs3)cc2C(=O)N([C@H](C)CO)C[C@@H]1C
→ -11.7 | -13.5[16.7 µM]
C[C@@H]1CCCCO[C@@H](CN(C)S(=O)(=O)c2ccc(Cl)cc2)[C@@H](C)CN([C@@H](C)CO)C(=O)c2cc(NC(=O)CCC(F)(F)F)ccc2O1
→ -4.5 | -8.2[16.7 µM]
C/C=C/c1ccc([C@H]2[C@@H](C#N)N(c3ncc(CC)s3)[C@H]2CO)cc1
→ -0.9 | 29.8[16.7 µM]
COc1ccccc1CN1C(=O)c2ccccc2[C@@]2(Cc3ccccc3N(CCN3CCOCC3)C2=O)[C@@H]1c1ccc(CO)cc1
→ 129.5* | 7.9[16.7 µM]
Cc1noc(C)c1NC(=O)N(C)C[C@@H]1Oc2ccc(NC(=O)Nc3ccc(F)cc3)cc2CC(=O)N([C@@H](C)CO)C[C@@H]1C
→ 7.1 | -7.4[16.7 µM]
O=C(C[C@H]1C[C@H]2c3cc(NC(=O)CC4CC4)ccc3O[C@H]2[C@H](CO)O1)NCc1ccncc1
→ -10.1 | 4.3[16.7 µM]
COc1ccccc1-c1cn(CC[C@H]2CC[C@@H](NC(=O)Cc3ccccn3)[C@H](CO)O2)nn1
→ 4.2 | -14.8[16.7 µM]
CN(C)CC(=O)N1[C@H](CO)[C@H](c2ccc(-c3ccccc3F)cc2)[C@@H]1C#N
→ 0.0 | 9.2[16.7 µM]
C[C@H]1CN([C@@H](C)CO)C(=O)c2cc(NC(=O)Nc3ccc(F)cc3)ccc2O[C@@H]1CN(C)Cc1ccc(Cl)c(Cl)c1
→ -1.7 | 0.7[16.7 µM]
C[C@@H]1CN([C@@H](C)CO)C(=O)c2cc(C#Cc3cccc(F)c3)cnc2O[C@@H]1CN(C)C(=O)c1ccccc1F
→ -2.5 | 12.2[16.7 µM]
COc1ccc(S(=O)(=O)N(C)C[C@@H]2Oc3ccc(NS(=O)(=O)c4c(C)noc4C)cc3C(=O)N([C@@H](C)CO)C[C@H]2C)cc1
→ 0.2 | 6.3[16.7 µM]
CCCc1cn(CC[C@H]2CC[C@H](NC(=O)C3CC3)[C@@H](CO)O2)nn1
→ 17.1 | 16.3[16.7 µM]
CCNC(=O)C[C@H]1CC[C@@H](NS(=O)(=O)c2ccc(F)cc2)[C@@H](CO)O1
→ -12.3 | -210.2[16.7 µM]
Cc1ccc(S(=O)(=O)Nc2ccc3c(c2)C(=O)N([C@H](C)CO)C[C@@H](C)[C@@H](CN(C)Cc2ccncc2)OCCCC[C@H](C)O3)cc1
→ -4.2 | 31.7[16.7 µM]
Cc1ccc(S(=O)(=O)N(C)C[C@H]2Oc3ccc(NS(=O)(=O)c4ccccc4)cc3CC(=O)N([C@H](C)CO)C[C@@H]2C)cc1
→ -1.7 | -15.6[16.7 µM]
C[C@@H]1CN([C@@H](C)CO)C(=O)c2cc(NS(=O)(=O)c3cn(C)cn3)ccc2O[C@@H](C)CCCCO[C@@H]1CN(C)C(=O)Nc1cccc2ccccc12
→ -5.2 | -6.9[16.7 µM]
C[C@H](CO)N1C[C@H](C)[C@H](CN(C)C(=O)C2CCOCC2)Oc2cc(C3=CCCCC3)ccc2S1(=O)=O
→ -2.0 | 3.2[16.7 µM]
COCc1cn(CC[C@H]2CC[C@H](NC(=O)Cc3cccnc3)[C@@H](CO)O2)nn1
→ -13.3 | -3.0[16.7 µM]
C[C@@H]1CCCCO[C@@H](CN(C)C(=O)NC2CCCCC2)[C@H](C)CN([C@H](C)CO)C(=O)c2cc(NS(=O)(=O)c3ccc(F)cc3)ccc2O1
→ -2.2 | -16.9[16.7 µM]
C[C@@H]1CN([C@@H](C)CO)S(=O)(=O)c2ccc(C#CCC3CCCC3)cc2O[C@@H]1CN(C)C(=O)CC1CC1
→ -8.0 | -4.8[16.7 µM]
CC(=O)N(C)C[C@@H]1Oc2ncc(-c3ccccc3C)cc2C(=O)N([C@H](C)CO)C[C@H]1C
→ -13.2 | -1.3[16.7 µM]
C[C@H](CO)N1C[C@H](C)[C@H](CN(C)C(=O)CCCN(C)C)OCCCC[C@H](C)Oc2ccc(NS(=O)(=O)c3ccccc3)cc2C1=O
→ 9.1 | -15.0[16.7 µM]
C[C@@H]1CCCCO[C@H](CN(C)C(=O)CCCN(C)C)[C@@H](C)CN([C@@H](C)CO)C(=O)c2cc(NC(=O)Nc3ccc(C(F)(F)F)cc3)ccc2O1
→ 23.7 | -20.0[16.7 µM]
CC(C)NC(=O)N(C)C[C@H]1Oc2ncc(-c3cncnc3)cc2C(=O)N([C@@H](C)CO)C[C@H]1C
→ -11.9 | -9.3[16.7 µM]
C[C@H]1CCCCO[C@H](CN(C)C(=O)Nc2ccc(F)cc2)[C@@H](C)CN([C@@H](C)CO)C(=O)c2cc(NS(C)(=O)=O)ccc2O1
→ 6.1 | 25.5[16.7 µM]
O=C(N[C@H]1CC[C@@H](CCn2cc(-c3ccccn3)nn2)O[C@H]1CO)c1cccnc1
→ -21.2 | 6.4[16.7 µM]
NCCCCCCNC(=O)[C@@H]1C[C@@H]2C(=O)N[C@@H](Cc3ccccc3)C(=O)N2[C@@H]1c1ccc(O)cc1
→ -6.3 | 4.6[16.7 µM]
C[C@@H]1CN([C@H](C)CO)S(=O)(=O)c2ccc(-c3cccnc3)cc2O[C@@H]1CN(C)C(=O)c1cccc(F)c1
→ 14.2 | -0.3[16.7 µM]

# Reprinted from the part before: 4 entries, followed by the next part.
# Results follow in this order: Yeast UUG start | Env fusion inh
C[C@H]1CCCCO[C@H](CN(C)C(=O)Nc2ccc(F)cc2)[C@@H](C)CN([C@@H](C)CO)C(=O)c2cc(NS(C)(=O)=O)ccc2O1
→ 6.1 | 25.5[16.7 µM]
O=C(N[C@H]1CC[C@@H](CCn2cc(-c3ccccn3)nn2)O[C@H]1CO)c1cccnc1
→ -21.2 | 6.4[16.7 µM]
NCCCCCCNC(=O)[C@@H]1C[C@@H]2C(=O)N[C@@H](Cc3ccccc3)C(=O)N2[C@@H]1c1ccc(O)cc1
→ -6.3 | 4.6[16.7 µM]
C[C@@H]1CN([C@H](C)CO)S(=O)(=O)c2ccc(-c3cccnc3)cc2O[C@@H]1CN(C)C(=O)c1cccc(F)c1
→ 14.2 | -0.3[16.7 µM]
COCC(=O)Nc1ccc2c(c1)[C@H]1C[C@H](CC(=O)N(C)C)O[C@H](CO)[C@H]1O2
→ -10.1 | 0.8[16.7 µM]
Cc1ccc(S(=O)(=O)NCC[C@@H]2CC[C@H](NC(=O)NC(C)C)[C@H](CO)O2)cc1
→ -18.7 | 6.0[16.7 µM]
C[C@@H]1CCCCO[C@H](CN(C)Cc2ccc(C(F)(F)F)cc2)[C@H](C)CN([C@@H](C)CO)C(=O)c2cc(NS(=O)(=O)c3ccc(F)cc3)ccc2O1
→ 15.0 | ?
O=C(C[C@H]1C[C@@H]2c3cc(NC(=O)NC4CCCCC4)ccc3O[C@@H]2[C@@H](CO)O1)NCCc1ccccc1
→ -0.5 | 9.0[16.7 µM]
C[C@H]1CCCCO[C@H](CN(C)Cc2ccccc2)[C@@H](C)CN([C@@H](C)CO)C(=O)c2cc(NC(=O)Nc3ccc4c(c3)OCO4)ccc2O1
→ -5.6 | 18.0[16.7 µM]
CN(C)C(=O)c1cccc(-c2ccc([C@H]3[C@@H](C#N)N(C(=O)C4CCC4)[C@@H]3CO)cc2)c1
→ 7.6 | -6.3[16.7 µM]
CN(C)Cc1cn(CC[C@H]2CC[C@H](N)[C@@H](CO)O2)nn1
→ -8.4 | 1.4[16.7 µM]
CC(C)CC#Cc1cnc2c(c1)C(=O)N([C@@H](C)CO)C[C@@H](C)[C@@H](CN(C)C(=O)Nc1cc(F)ccc1F)O2
→ 44.0 | 9.3[16.7 µM]
O=C(N[C@@H]1CC[C@H](CC(=O)N2CCOCC2)O[C@H]1CO)c1cccc(F)c1
→ -12.0 | -4.9[16.7 µM]

# Source: PubChem
